RGS16-Gao HTS – regulators of human RGS16-Galphao interaction. O15492+P09471. bead-based flow cytometry RGS16-Galphao binding, fluorescence; actives lie on both sides. 0.38% of 220,000 active. binding response (% of control), % at 10 µM;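 active means below 25% or above 175%, edge rows of some plates excepted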;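 further: Galphao activated by GDP with aluminum fluoride before binding; 100% = wells without compound and 0% = beads without RGS; some results beyond the cut were filed as inactive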
HSV augment – increases HSV replication in cells. HSV replication augmentation in cells, fold increase. maximum fold increase. 0.005% of 220,000 active;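 active means peak rise of 1.5-fold or more in the series; tested in PC3 cells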;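 further: first round at 10 µM; read as green reporter fluorescence; hits show the peak of a series up to 25 µM; 1 = signal of infected wells without compound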
GALR2 agonist – activates the human galanin receptor 2; 0.48% of 140,000 active; O43603; activation, %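 (tested at 5 µM)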; GALR2-expressing cells, agonist activation read-out;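 active means above mean plus 3 SD of all compounds, about 5% in these data, not always enough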;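 further: 0% = vehicle buffer wells and 100% = reference agonist at full effect; tested in CHO reporter cells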
PKD1 kinase inh – PKD1 (human) kinase inhibition. 0.056% of 200,000 active. PKD1 kinase fluorescence polarization assay. Q15139. inhibition, %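 (about 10 µM by stock and volumes)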;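 active means inhibition of 50% or more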;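 further: controls were vehicle for no effect and a reference inhibitor for full effect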
Target sequence (Q15139 whole entry, looked up): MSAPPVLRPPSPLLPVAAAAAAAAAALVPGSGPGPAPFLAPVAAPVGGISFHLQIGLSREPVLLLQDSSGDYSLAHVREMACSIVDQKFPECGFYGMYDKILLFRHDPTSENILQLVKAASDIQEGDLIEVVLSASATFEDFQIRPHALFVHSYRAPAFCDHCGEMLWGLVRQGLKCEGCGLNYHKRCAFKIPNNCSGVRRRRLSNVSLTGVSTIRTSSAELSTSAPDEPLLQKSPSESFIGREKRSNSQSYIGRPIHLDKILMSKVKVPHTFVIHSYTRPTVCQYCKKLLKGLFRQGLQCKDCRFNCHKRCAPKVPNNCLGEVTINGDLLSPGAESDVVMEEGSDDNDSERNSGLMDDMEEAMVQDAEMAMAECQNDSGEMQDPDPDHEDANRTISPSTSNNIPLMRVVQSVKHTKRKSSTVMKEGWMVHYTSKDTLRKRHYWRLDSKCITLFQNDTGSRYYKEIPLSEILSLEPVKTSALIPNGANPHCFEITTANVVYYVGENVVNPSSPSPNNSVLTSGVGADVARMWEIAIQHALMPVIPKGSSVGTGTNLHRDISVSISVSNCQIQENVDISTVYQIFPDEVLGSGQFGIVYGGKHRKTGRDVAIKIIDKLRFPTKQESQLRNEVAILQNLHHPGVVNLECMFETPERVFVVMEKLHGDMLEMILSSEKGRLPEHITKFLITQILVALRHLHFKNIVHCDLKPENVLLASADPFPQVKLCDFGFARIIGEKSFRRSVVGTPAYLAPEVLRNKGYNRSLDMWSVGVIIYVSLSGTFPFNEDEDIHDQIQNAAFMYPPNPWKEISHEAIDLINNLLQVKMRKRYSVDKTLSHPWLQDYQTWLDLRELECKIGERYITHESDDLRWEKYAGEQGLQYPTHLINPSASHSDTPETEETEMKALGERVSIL
INS promoter inh – TRM-6 insulin promoter activity inhibition | inhibition, % at 2 µM | AID 1273 | TRM-6 cells (human fetal islet line), insulin promoter-eGFP reporter, imaging; reporter expression induced with tamoxifen | 0.9% of 130,000 active;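 active means inhibition above the mean plus 3 SD, with well images judged a real hit on visual review, cut at about 60% in these data, passing the limit was not always enough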
INS promoter inh cell count – also measured in INS promoter inh; calls as there; normalized cell count, %; measured here: cell count, toxicity; reference of the scale not given here;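 cells exposed to compound for 48 h; stained nuclei by imaging scaled within each plate; lower means fewer cells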
HSV augment primary fold – recorded beside HSV augment, whose call it bears; fold increase; compound at 10 µM; measured here: primary screen fold increase 10 uM; tested in PC3 cells;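 GFP signal in the first replicate; 1 = infected wells without compound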
* = called active by the depositor; i = inactive; nt = no result given; & = joins results of further samples.

No.	Compound	INS promoter inh cell count	PKD1 kinase inh	HSV augment primary fold	GALR2 agonist	HSV augment	INS promoter inh	RGS16-Gao HTS
1	O=C(O)c1cccc2c1C(=O)N(Cc1ccncc1)C2	nt	-8.9	0.93	-1.8	i	nt	100.7
2	COc1ccccc1OCC(=O)Nc1nc(-c2ccc(S(=O)(=O)N3CCOCC3)cc2)cs1	112.6	-3.0	0.92	-1.6	i	0.0	103.5
3	Nn1c(SCC(=O)N2CCOCC2)nnc1C1CC1	nt	4.6	0.98	nt	i	nt	87.0
4	CC(=O)c1ccccc1OC(=O)COc1ccc(Cl)cc1C	84.0	6.7	1.01	nt	i	15.8	102.3
5	CC1CN(S(=O)(=O)c2ccc(C(=O)O)cc2)CC(C)O1 (configuration not stated)	nt	nt	1.12	nt	i	nt	91.8
6	Cc1nc(C)c(/C(O)=C/c2nc3ccc([N+](=O)[O-])cc3oc2=O)o1	83.3	3.1	0.87	nt	i	-16.7	83.7
7	C=CCOc1ccccc1/C=N/O	nt	-12.7	1.13	-2.3	i	nt	110.7
8	CN(C)/C=C/C(=O)c1cnc(-c2ccccc2Cl)s1	nt	1.5	0.88	nt	i	nt	98.1
9	COc1ccc(C)cc1NC(=S)NC12CN3CN(CN(C3)C1)C2	101.7	-4.3	0.79	nt	i	38.9	100.8
10	COc1ccc(OC)c(NC(=O)C2CCN(c3cc(-c4ccccc4)nc4ncnn34)CC2)c1	147.0	-3.1	0.77	-2.5	i	-5.1	111.3
11	Cc1ccc(C(=O)N(CN2CCCC2=O)c2ccc(F)cc2)cc1	nt	-13.8	1.05	-0.4	i	nt	98.1
12	Cc1nccn1-c1cc(C(C)(C)C)nc2c(-c3ccccc3)cnn12	138.2	-5.3	0.92	0.9	i	3.7	98.5
13	CCOC(=O)c1nc2sc3c(c2c(=O)[nH]1)CCCC3	71.9	-9.3	0.9&0.81	-1.5	i	47.4	102.4&112.1
14	CCC(=O)Oc1ccc2c(C)cc(=O)oc2c1C(=O)c1ccccc1	133.8	-3.5	1	-0.4	i	-20.0	99.5
15	CSc1nnc(CNC(=O)c2ccccc2)n1-c1cccc(C)c1	nt	-3.8	1.02	-1.8	i	nt	106.6
16	Cc1cc(C)c(S(=O)(=O)N2CCN(C(=O)c3cccs3)CC2)c(C)c1	70.0	0.2	0.64	nt	i	-42.9	104.7
17	COCCN1CN(S(=O)(=O)c2ccc(Cl)cc2)c2nc3ccccc3nc21	92.2	-7.4	0.943	-0.7	i	26.8	100.0
18	COc1ccccc1/C=C/C=N/NC(=O)CCn1nnc2ccccc21	138.6	8.1	0.98	-2.4	i	-26.5	101.2
19	COc1ccc(C)cc1S(=O)(=O)N(CC(N)=O)Cc1ccccc1	139.3	-2.6	0.97	-1.8	i	33.3	105.7
20	Cc1cc(NC(=O)CCC(=O)NNC(=O)c2ccc(C(C)(C)C)cc2)no1	52.0	-7.6	1.16	-2.3	i	26.9	89.8
21	Cc1ccccc1NC(=S)Nc1cccc2cnccc12	nt	-2.1	0.82	nt	i	nt	94.8
22	CCn1cc(C(=O)N2CCN(c3ccc(OC)cc3)CC2)c(=O)c2cc(S(=O)(=O)N3CCCCC3)ccc21	nt	-2.9	0.93	nt	i	nt	104.6
23	O=C(CC1Sc2ccccc2NC1=O)OCc1cc(=O)oc2cc(O)ccc12 (configuration not stated)	130.7	-9.7	1.02	0.2	i	-5.9	106.1
24	Cc1cccc(C)c1OCCN1C(=O)NC(C)(c2ccccc2)C1=O (configuration not stated)	nt	0.2	0.89	nt	i	nt	103.6
25	O=C(NC(=S)NCc1cccnc1)c1ccccc1[N+](=O)[O-]	66.0	6.4	1.09	0.4	i	-23.5	96.5

The list goes on.
No.	Compound	INS promoter inh cell count	PKD1 kinase inh	HSV augment primary fold	GALR2 agonist	HSV augment	INS promoter inh	RGS16-Gao HTS
26	CC1=NNC(=O)C1CC(=O)N/N=C/C(C)=C/c1ccccc1 (configuration not stated)	112.0	0.9	0.89	nt	i	-9.1	85.0
27	COC(=O)c1ccc(CNC(=O)CSc2nnc(COc3ccccc3)n2C)o1	124.4	0.8	0.92	-1.8	i	31.4	105.0
28	Cc1ccccc1NC(=S)NC(C)CCc1ccccc1 (configuration not stated)	nt	-3.6	1.01	-1.8	i	nt	118.9
29	Cc1cc(C)c2nc(C)cc(Nc3ccc(C(=O)N(C)C)cc3)c2c1	nt	nt	0.94	nt	i	nt	102.3
30	COc1ccccc1/C=C/C=N/NC(=O)c1ccc(=O)n(C)c1	98.8	-10.1	0.82	-0.5	i	36.7	103.0
31	CCOc1cc2nc(-c3ccc(OC)c(OC)c3)nc(NCCCN3CCOCC3)c2cc1OC	82.2	-2.8	0.88	-0.4	i	-59.3	104.5
32	Cc1ccc(-n2ncc3c(NCc4ccccn4)ncnc32)c(C)c1	nt	-7.1	0.98	-2.6	i	nt	101.7
33	C1=C(CCNc2ncnc3c2[nH]c2ccccc23)CCCC1	137.4	-1.1	0.81	-0.3	i	35.3	104.3
34	O=C(NC(=S)Nc1cccc(NC(=S)NC(=O)c2ccco2)n1)c1ccco1	159.8	-7.5	1.07	nt	i	-15.0	101.9
35	CC(=O)Oc1ccc2ccccc2c1C(NC(=O)Cc1ccccc1)c1ccccc1 (configuration not stated)	60.8	-7.3	0.82	-3.2	i	-55.6	119.9
36	CC(=O)Nc1nnc(SCc2ccc(C(=O)Nc3ccccc3F)cc2)s1	131.9	-3.2	0.94	nt	i	57.1	99.7
37	CCOC(=O)C1=C(O)/C(=C\c2ccc(OC)c(OC)c2)N=C1C	238.2	-4.3	0.84	-1.1	i	-37.1	102.5
38	Cc1nnc2ccc(-c3ccc(NC(=O)Cc4cccs4)cc3)nn12	nt	nt	1.02	nt	i	nt	99.6
39	O=C(CN1CCCCC1)Nc1nnc(-c2ccc([N+](=O)[O-])cc2)s1	63.2	1.5	nt	-1.4	nt	25.7	97.3
40	COc1ccccc1NC(=O)c1cc2n(n1)C(C(F)(F)F)CC(c1ccc3c(c1)OCO3)N2 (configuration not stated)	90.9	5.4	0.88	0.7	i	-42.1	101.5
41	O=C1CC(N(O)c2ccccc2)C(=O)N1c1cc(Cl)cc(Cl)c1 (configuration not stated)	88.7	-42.7	0.79	-2.1	i	53.3	98.4
42	Cc1occc1C(=O)N/N=C/c1ccc(Cl)c([N+](=O)[O-])c1	133.5	3.1	0.86	-0.5	i	21.4	96.3
43	COC(=O)c1[nH]c2ccc(Br)cc2c1NC(=O)Oc1ccccc1	81.6	3.4	0.98	-0.8	i	-30.2	97.3
44	COc1ccc(S(=O)(=O)N2CCCCC2)cc1NC(=O)C1CCCO1 (configuration not stated)	nt	-1.2	0.96	nt	i	nt	87.6
45	Cc1cc(C(F)(F)F)nn1C(=O)c1cccnc1Cl	126.5	-2.9	0.9	-0.8	i	-21.4	108.8
46	CN(C(=O)CSc1cc(C(=O)c2nccn2C)c2ccccc2n1)c1ccccc1	nt	nt	0.84	nt	i	nt	103.1
47	Cn1cc(CN2CCC(C(O)CCc3ccccc3)CC2)c(-c2ccccc2F)n1 (configuration not stated)	nt	5.8	1.14	nt	i	nt	98.0
48	CCCN1C(=O)c2cc(C(=O)Nc3ccc(OC)cc3OC)ccc2C1Nc1ccc(OC)cc1OC (configuration not stated)	nt	6.9	0.84	nt	i	nt	97.4
49	CN(C)CCN1CCc2ccccc21	114.7	8.1	0.94	-1.1	i	-108.6	96.3
50	COc1ccnc(Nc2cccc(C)c2)c1C#N	125.6	-1.8	0.99	-2.9	i	-196.9	94.1

A different layout for some results above.
Below each SMILES – INS promoter inh cell count | PKD1 kinase inh | HSV augment primary fold | GALR2 agonist | HSV augment | INS promoter inh | RGS16-Gao HTS
39. O=C(CN1CCCCC1)Nc1nnc(-c2ccc([N+](=O)[O-])cc2)s1
  63.2 | 1.5 | nt | -1.4 | nt | 25.7 | 97.3
43. COC(=O)c1[nH]c2ccc(Br)cc2c1NC(=O)Oc1ccccc1
  81.6 | 3.4 | 0.98 | -0.8 | i | -30.2 | 97.3

The results go on.
No.	Compound	INS promoter inh cell count	PKD1 kinase inh	HSV augment primary fold	GALR2 agonist	HSV augment	INS promoter inh	RGS16-Gao HTS
51	COc1ccc(/C=N/Nc2nncc3ccccc23)cc1	nt	-7.3	0.84	-0.7	i	nt	118.0
52	CCOC(=O)CCCNC(=O)COC(=O)CCC(=O)c1ccc(F)cc1	79.8	-2.7	0.91	-0.7	i	9.1	101.7
53	CCOC(=O)C(NC(C)=O)(NS(=O)(=O)c1ccccc1)C(F)(F)F (configuration not stated)	123.5	-13.8	1.08	0.6	i	43.8	101.0
54	Cc1cccc(CN2CCN(CC(=O)NCCCN3CCCC3=O)C2=O)c1	112.5	-6.8	0.86	-0.1	i	48.1	98.6
55	CCc1ccc2[nH]cc(C(=O)N3CCCCCC3)c(=O)c2c1	50.6	-8.8	1.01	-1.4	i	8.3	101.1
56	COc1ccccc1N1CCN(C(=O)CCNS(=O)(=O)c2ccc3c(c2)CCC(=O)N3)CC1	104.0	3.0	1.04	-0.9	i	-76.9	100.5
57	CC(=O)N1CC(=O)N=C1SCC(=O)Nc1nc(-c2ccccc2)c(-c2ccccc2)s1	148.0	-2.8	1.08	-0.1	i	27.3	103.7
58	Cc1c(CCO)sc[n+]1CC(=O)OC12CC3CC(CC(C3)C1)C2	59.9	-13.7	0.97	0.3	i	33.3	106.7
59	C=CCNC(=O)c1ccccc1S(=O)c1ccccc1C#N (configuration not stated)	90.7	-15.3	0.89	-2.0	i	27.6	104.4
60	Cn1c(=O)c2c(ncn2CC(=O)Nc2ccccc2Sc2ccccc2)n(C)c1=O	93.8	-7.7	1	-2.0	i	-22.7	103.8
61	Cc1c(NC(=O)C2CCCCC2)cc(C(=O)N2CCOCC2)cc1[N+](=O)[O-]	90.4	-6.0	1.05	nt	i	-53.3	102.3
62	Cc1ccc(-c2[nH]ncc2/C=N/n2c(COc3ccccc3C)nc3ccccc3c2=O)cc1	37.5	3.9	0.57	0.2	i	14.3	126.0
63	Cc1cccc2[nH]c3c(=O)n(CCN4CCNCC4)cnc3c12	104.5	-5.9	0.99	-2.7	i	-6.1	100.3
64	O=C(CSc1ccc2ccccc2c1)Nc1ccc(S(=O)(=O)Nc2nccs2)cc1	112.4	-11.0	0.89	0.4	i	-58.4	104.7
65	COc1cccc2c1OCC/C2=N\NC(=O)COc1ccc(C)cc1	84.3	-0.4	0.94	-1.3	i	15.4	112.6
66	COCCNC(=O)COc1ccc(Oc2ccccc2)cc1	234.5	0.0	0.98	-3.1	i	-22.2	101.4
67	CCN1CCCC(NC(=O)c2cc([N+](=O)[O-])ccc2OC)C1 (configuration not stated)	100.5	-9.1	0.98	-0.2	i	8.3	118.6
68	CC(C)N(CC#CCC(O)(c1ccccc1)c1ccccc1)C(C)C	84.1	3.2	1.04	0.0	i	-23.3	97.8
69	O=C(NC1CCCCC1)c1ccc(S(=O)(=O)N2CCCC2)cc1	98.7	1.0	0.8	-2.7	i	-287.5	106.7
70	Cn1ccs/c1=N\S(=O)(=O)c1ccc(C(C)(C)C)cc1	61.0	-2.5	0.87	-0.7	i	32.1	85.7
71	CC1(C)Cc2c(c(-c3ccco3)nc3sc4c(NCC5CCCO5)ncnc4c23)CO1 (configuration not stated)	114.9	-5.1	1.4	0.9	i	-14.3	96.7
72	COc1ccc(C(=O)COC(=O)c2cccnc2Cl)c(OC)c1	nt	-2.7	0.65	nt	i	nt	104.2
73	CCNc1nc(NCC)n2c(SC(C(=O)Nc3cc(C)ccc3OC)c3ccccc3)nnc2n1 (configuration not stated)	126.2	-1.7	0.76	-0.9	i	50.0	157.7
74	CC1CN(C2CCN(C(=O)COc3ccc(Cl)cc3)CC2)CC(C)O1 (configuration not stated)	126.7	-2.3	1.26	-1.3	i	33.3	101.5
75	CCC(C)NS(=O)(=O)c1ccc(NC(=O)c2ccc([N+](=O)[O-])cc2Cl)cc1 (configuration not stated)	nt	-8.7	1	0.5	i	nt	82.0

High-throughput results as filed in PubChem BioAssay.
